# HPGD inh: inhibitors of human 15-hydroxyprostaglandin dehydrogenase (HPGD). 150,000 compounds, 4.3% hits. purified HPGD, NADH fluorescence kinetic, PGE2 substrate. P15428. Potency, µM, for the others: at the top dose activity change, negative = inhibition, usual class: inhibitors; active = well fitted inhibition curve with a large enough effect (not every such curve was filed as active); inconclusive = small, poorly fitted or top-dose-only effect, or another doubt; inactive = no such curve, though single readings can be large or run the other way;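 note: top concentration of the series not given in the record; plate controls included wells without enzyme; inactives centre near -10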
# Target sequence (P15428 whole entry, looked up): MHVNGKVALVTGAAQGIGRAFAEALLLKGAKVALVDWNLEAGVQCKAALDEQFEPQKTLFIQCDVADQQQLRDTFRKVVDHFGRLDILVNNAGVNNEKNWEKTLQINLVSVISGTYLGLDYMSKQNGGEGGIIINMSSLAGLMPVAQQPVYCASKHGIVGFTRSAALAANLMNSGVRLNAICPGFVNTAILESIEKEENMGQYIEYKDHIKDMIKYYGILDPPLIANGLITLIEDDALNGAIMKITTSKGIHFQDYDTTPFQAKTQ
#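 NADH formation kinetics: reaction with 30 uM PGE2 and 1 mM NAD+ (final), 20 nM enzyme, Tris-HCl pH 8 with Tween 20, after 15 min compound preincubation at room temperature. Fluorescence change, last versus first of five reads.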
# An asterisk follows results filed as active; ? = inconclusive; & = joins results of further samples. % is set by controls: 0 for no effect and ±100 for the full control effect; potency is the fitted concentration of half-maximal effect. These rows are one share of the data, so the mix of outcomes need not match the whole.
SMILES,HPGD inh
CCN1C(=O)C2(C(C#N)=C(N)Oc3c2c(C)nn3-c2ccccc2)c2ccccc21 (stereo not given),-6%
COc1cc(CN2CCN(c3ccc(C)cc3)CC2)cc([N+](=O)[O-])c1O,-5%
Cc1ccc(C)c(S(=O)(=O)N2CCN(CC(=O)Nc3sccc3C#N)CC2)c1,-13%
CC1CCN(C(=O)c2ccccc2NC(=O)c2cccc(S(=O)(=O)N3CCOCC3)c2)CC1,-2%
COC(=O)C(NC(C)=O)(Nc1nc(C)cs1)C(F)(F)F (stereo not given),-5%
C=CCSC1=N/C(=C\c2cccnc2)C(=O)N1c1ccc(OC)cc1,-24%
CSc1nc2c(c(=O)[nH]1)CCCC2,-16%
CCn1ccc(C(=O)NC2C(=O)N3C(C(=O)O)=C(C)CSC23)n1 (stereo not given),-6%
CCCCSc1nc2c(cnn2-c2ccc(F)cc2)c(=O)[nH]1,-9%
CCOc1oc(-c2ccc(OC)cc2)nc1C(F)(F)F,?
O=C(NNc1nc2ccccc2nc1C(F)(F)F)c1ccccc1,-8%
O=C(Nc1ccc2nc(-c3ccccc3)[nH]c2c1)c1ccco1,-21%
CN(C)c1ccnc(-n2cccc2/C=N/OCc2ccccc2)c1C#N,-2%
CCN(CC)CCNC(=O)C1CCC(=O)N1CCc1ccccc1 (stereo not given),-1%
CCOC(=O)/C=C1\SCC(=O)N1CC(=O)Nc1ccc2c(c1)CCC2,-8%
CCc1cccc(NC(=O)c2ccc(Cn3c(=O)[nH]c4ccsc4c3=O)cc2)c1,-16%
Cc1cc(Nc2ccccc2)n(-c2nc3ccccc3[nH]2)n1,-7%
COCOc1ccc(OC)cc1C(=O)C1O[C@H]1c1ccc(OC)c(Br)c1 (stereo not given in full),-17%
COc1ccc(CNc2nc3ccccc3n2Cc2ccccc2)cc1OC,-3%
C=CCn1c(SCC(=O)Nc2ncc(Cc3ccc(C)c(Cl)c3)s2)nnc1-c1ccncc1,-17%
Cc1ccc(C(=O)OC2CCOC2=O)cc1NC(=O)c1ccco1 (stereo not given),3%
O=C(c1cc(-c2ccc(Cl)cc2)n(-c2ccc(Cl)cc2)n1)N1CCOCC1,-9%
COc1ccc(N(C)S(=O)(=O)c2c(C)[nH]c(=O)[nH]c2=O)c(OC)c1,-6%
CCC(C)c1ccc(NC(=O)C2CC2)cc1 (stereo not given),-9%
CCc1ccc(NC(=O)CS(=O)CC(=O)Nc2ccc(F)cc2F)cc1 (stereo not given),-11%
COCC(=O)N1CCC2(CCCN(C(=O)Nc3cccc(F)c3)C2)CC1,-2%
COc1ccc(-c2[nH]nc3c2C2(C(=O)N(CC(=O)O)c4ccccc42)C(C#N)=C(N)O3)cc1OC (stereo not given),-1%
O=C(CSc1nnnn1-c1cccnc1)Nc1ccc(OCc2ccccc2)cc1,-12%
O=C(NNC(=O)c1cnccn1)c1cccc([N+](=O)[O-])c1,-25%
COc1ccc(-n2c(=S)[nH]c3cc(C(=O)Nc4ccc(OC)c(OC)c4)ccc3c2=O)cc1,-14%
O=C(Nc1ccc(F)cc1)c1ccc(S(=O)(=O)NCC2CCCO2)cc1 (stereo not given),-6%
O=c1c2ccccc2[nH]c(=S)n1CCc1ccccc1,-14%
O=C(N/N=C/c1c(O)ccc2ccccc12)c1[nH]ncc1Br,-18%
O=C(Cn1nnc(-c2ccc(CN3CCOCC3)cc2)n1)NC1CCCCC1,-4%
COc1ccc(CCNC(=O)CN(C2CCCCC2)S(C)(=O)=O)cc1,-9%
CCCOc1ccc(C(=O)N2CCCC2)cc1OC,?
C=CCC(C)(Nc1ccccc1)C(=O)OCC (stereo not given),-7%
CC1CCCN(C(=S)NCc2ccccc2)C1 (stereo not given),-3%
NNc1nc2c(Cl)ccc(Cl)c2s1,-9%
Cc1c(C(=O)OC(C)C)[nH]c2c1C(=O)CC(C)(C)C2,-17%
COc1ccc(CCNC(=O)CSc2nnc(-c3ccccc3)c3ccccc23)cc1OC,1%
O=C(NCCN1CCN(Cc2ccc([N+](=O)[O-])cc2)CC1)C(=O)Nc1ccccc1,-8%
CCOc1cc(C(C#N)N2CCCCC2)ccc1OC (stereo not given),-13%
CCC(C)c1ccc(OCCn2ccnc2)cc1 (stereo not given),-15%
CCOC(=O)N1CCN(c2nc(SC)nc3sc4c(c23)CC(C)(C)OC4)CC1,?

# 3 entries from above, sorted by the value under HPGD inh, low to high:
SMILES,HPGD inh
CCC(C)c1ccc(OCCn2ccnc2)cc1 (stereo not given),-15%
COc1ccc(CCNC(=O)CN(C2CCCCC2)S(C)(=O)=O)cc1,-9%
O=C(Nc1ccc(F)cc1)c1ccc(S(=O)(=O)NCC2CCCO2)cc1 (stereo not given),-6%

# (further entries)
SMILES,HPGD inh
Nc1ccc2ncccc2c1,-19%
O=C(O)CCC(=O)N1CCc2cc(S(=O)(=O)N3CCCCC3)ccc21,-15%
COc1ccc(OCC(=O)N2CCN(C(=O)c3cccs3)CC2)cc1,-7%
N#Cc1ccc(Cn2c(=O)c(C#N)c3n(c2=O)CCC3)cc1,-12%
COC(=O)Nc1ccc2c(c1)N(C(=O)CCN1CCN3CCCC3C1)c1ccccc1S2 (stereo not given),0%
COCC(C)NC(=O)c1ccc(Cl)c(Cl)c1 (stereo not given),-23%
Cc1ccc(S(=O)(=O)NCCNC(=O)CN2CCCC2)cc1,-15%
CSc1sc(C)cc1C1C(C#N)=C(N)N(c2cccnc2)C2=C1C(=O)CCC2 (stereo not given),-12%
Cc1ccc(S(=O)(=O)N2CCN(Cc3nc4ccccc4[nH]3)CC2)cc1C,-11%
Cc1ccc(C2C3CN(C(C)C)CC=C3C(C#N)=C(N)C2(C#N)C#N)cc1 (stereo not given),?
COc1ccc2c(c1)OC(O)(C(F)F)CC2=O (stereo not given),-21%
Cc1ccc(-n2nnc3c(=O)n(CC(=O)NCc4ccco4)cnc32)cc1,?
O=C(NC(Cc1c[nH]c2ccccc12)C(=O)N/N=C/c1cccc2ccccc12)c1cccs1 (stereo not given),-24%
O=C(CC12CC3CC(C1)CC(CC(=O)NC1=NCCS1)(C3)C2)NC1=NCCS1,-2%
Cc1cccc(NC(=S)NN2CCOCC2)c1C,-12%
COc1ccc2cc3cc(C(=O)Nc4cc(OC)c(OC)c(OC)c4)oc3nc2c1,-27%
COC(=O)c1onc(-c2c(C)cc(C)cc2C)c1C(=O)OC,-1%
CCCN1C2CCCC1CC(NC(=S)Nc1cc(C)ccc1C)C2 (stereo not given),-2%
CC(C)Cn1c(N)c(C(=O)COC(=O)c2cc(C(F)(F)F)nc3c(C(F)(F)F)cccc23)c(=O)n(C)c1=O,-18%&-6%
Cc1cc(C)cc(NC(=O)c2cccn2-c2ncc(C(F)(F)F)cc2Cl)c1,-11%
O=S(=O)(NCc1cccnc1)c1ccc(Cl)s1,-6%
Clc1nc(-c2cccnc2)nc2scc(-c3ccccc3)c12,20µM*
COc1ccc(C(=O)Nc2cccc(C(C)=O)c2)c(OC)c1OC,-8%
Cc1c(C(=O)O)sc2nc3n(c(=O)c12)CCCCC3,-9%
O=C(Nc1ccc(C(=O)OC[C@@H]2CCCN3CCCC[C@H]23)cc1)c1cccc(Br)c1,-7%
Cn1c(N)c(N2CCCCC2)c(=O)n(CC(=O)Nc2ccc(Cl)c(Cl)c2)c1=O,-2%
Cc1cc(-c2ccccc2)nc2cc(C(=O)N(Cc3ccccc3)Cc3ccccc3)nn12,?
CCOc1ccc(C2=Nc3ccc(Br)cc3C(c3ccc(N4CCOCC4)cc3)=NN2)cc1,-18%
CCCNC(=O)Cn1cnc2sc(C(=O)N3CCCC(C(=O)OCC)C3)c(C)c2c1=O (stereo not given),-13%
Brc1ccc(-c2nn3c(Cc4ccccc4)nnc3s2)o1,-25%
Cc1ccc(S(=O)(=O)NCC2COc3ccccc3O2)cc1 (stereo not given),-16%
Nc1nnc(SCC(=O)NCCOc2ccccc2)s1,-20%
Nc1ccn([C@@H]2CC[C@H](CO)O2)c(=O)n1,-2%
CC(C)C[C@@H](CC(=O)N[C@@H](CCCN)CC(=O)N[C@@H]1CCCC[C@H]1C(=O)N[C@H](CC(=O)N[C@@H](CCC(=O)O)CC(=O)O)Cc1c[nH]c2ccccc12)NC(=O)[C@@H]1CCCC[C@H]1N,-8%
Nc1c(-c2ccccc2)c(CN2CCOCC2)nn1-c1ccc(C(=O)O)cc1,-3%
Cc1nn(Cc2c(Cl)cccc2Cl)c(C)c1NC(=O)/C=C/c1cnn(C)c1C,-17%
Cc1cc(C)cc(C(=O)N2CCN=C2c2ccccc2)c1,-1%
CN1CCN(C(=O)CN(c2cc(C(F)(F)F)ccc2Cl)S(C)(=O)=O)CC1,-4%
CCn1cc(/C=N\NC(=O)COc2cccc(C)c2C)c(C)n1,-1%
CSc1c(CC(=O)Nc2ccccc2)n(Cc2ccccc2)c2ccccc12,-13%
Cc1ccc(/C=N/n2c(=O)c(C(C)(C)C)nn3cnnc23)cc1,-12%
CC(=O)CSc1nnc(-c2ccc3c(c2)OCO3)o1,-2%
Cc1ccc2cc(C#N)c(SCC(=O)Nc3ccc4sc(C)nc4c3)nc2c1,-4%
O=C(NCc1cccnc1)c1ccccc1[N+](=O)[O-],-10%
CCOC(=O)c1c(NC(=O)c2cccs2)sc2c1CCCC2,?

# A second format for three compounds above.
HPGD inh,structure
-16%,CCc1cccc(NC(=O)c2ccc(Cn3c(=O)[nH]c4ccsc4c3=O)cc2)c1
-7%,Cc1cc(Nc2ccccc2)n(-c2nc3ccccc3[nH]2)n1
-17%,COCOc1ccc(OC)cc1C(=O)C1O[C@H]1c1ccc(OC)c(Br)c1 (stereo not given in full)

# Continued:
SMILES,HPGD inh
O=C(COC(=O)Cc1cccc(C(F)(F)F)c1)Nc1cccc2ccccc12,-4%
CN(C)c1ccc(CN(C(=O)COc2ccccc2)C2CCS(=O)(=O)C2)cc1 (stereo not given),-22%
CC(C)CCn1c(Cl)nc2c1c(=O)n(C)c(=O)n2C,-4%
COc1ccc(OCC(=O)N/N=C(/C)Cc2ccccc2)cc1,-9%
CC(OC(=O)c1ccc2ccccc2n1)C(=O)Nc1ccc(N2CCOCC2)cc1 (stereo not given),-11%
COc1cccc(-n2c(C)n[nH]c2=O)c1,-6%
CCOC(=O)N1CCC(NC(=O)c2cc(C(=O)Nc3ccc(OC)c(OC)c3)ccc2CO)CC1,?
CCCCCOc1ccc(/C=c2\sc3nc(=O)c(-c4ccccc4)nn3c2=O)cc1OC,-16%
O=C(Nc1ccccc1C(F)(F)F)N1CCN(c2ccc3nnc(-c4ccc(F)cc4)n3n2)CC1,-5%
CCC(Oc1ccccc1)C(=O)O/N=C(\N)c1ccc(OC)c(OC)c1 (stereo not given),-16%
Cc1ccc(C2C3=C(CCCC3=O)Nc3nc(SCC(=O)NCc4ccco4)[nH]c(=O)c32)cc1 (stereo not given),?
CCc1ccc(NC(=S)N(CCCN2CCOCC2)Cc2ccccn2)cc1,-9%
O=C(Nc1ccccc1C(=O)N1CCOCC1)C1CCC(=O)N1C1CCCC1 (stereo not given),-11%
OC(COCC1COc2ccccc2O1)CN1CCN(c2ccccn2)CC1 (stereo not given),-1%
Cc1cc(=O)oc2c1c(C)nn2-c1ccc(C(=O)OC(C)C)cc1,-13%

# Random excerpt: 6 compounds from above, in no set order.
SMILES,HPGD inh
Cn1c(N)c(N2CCCCC2)c(=O)n(CC(=O)Nc2ccc(Cl)c(Cl)c2)c1=O,-2%
O=C(Nc1ccccc1C(=O)N1CCOCC1)C1CCC(=O)N1C1CCCC1 (stereo not given),-11%
COc1ccc(OCC(=O)N/N=C(/C)Cc2ccccc2)cc1,-9%
Cc1ccc(S(=O)(=O)NCCNC(=O)CN2CCCC2)cc1,-15%
CCc1ccc(NC(=S)N(CCCN2CCOCC2)Cc2ccccn2)cc1,-9%
COc1cc(CN2CCN(c3ccc(C)cc3)CC2)cc([N+](=O)[O-])c1O,-5%

# (list continues)
SMILES,HPGD inh
Nc1ccc2nc(CCc3ccccc3)[nH]c2c1,-29%
Oc1cccc(-c2nc3ccc4ccccc4c3c3c2CCC3)c1,?
O=C(NCCc1ccc(Cl)cc1)C1CCN(S(=O)(=O)N2CCCC2)CC1,-5%
Cc1ccc(C)c(OCCCC(C)(C)C(=O)O)c1,-15%&-6%&-6%&5%
CCn1c2c(c(=N)c3c1CCC3)CCC2,-10%
N/N=C1/CC(=O)NC(=O)N1,?
Cc1[nH]n(CCC#N)c(=O)c1CC(=O)N1CCN(c2ccccc2)CC1,-1%
CCC(=O)Nc1ccc(C(=O)CSc2nnc(-c3cccnc3)o2)cc1,-25%
COc1cccc(C(=O)O/N=C(\N)c2ccncc2)c1OC,-13%
O=C(NCCc1csc(-c2cccnc2)n1)c1cccs1,?
Cc1ccc(NC(=O)COC(=O)c2ccc3c(c2)C(=O)N(CCc2ccccc2)C3=O)c(C)c1,-4%
CCOC(=O)c1nn(-c2ccccc2)c(=O)c(C#N)c1C,-21%
Cn1c(C(=O)N2CCc3ccccc3C2)cc2oc3ccccc3c21,0.71µM*
O=C(COC(=O)c1cccc(N2C(=O)c3ccccc3C2=O)c1)Nc1ccccc1,-16%
CCOc1ccc(Br)cc1/C(C)=N\NC1=NCCN1,-14%
COc1ccc(Cn2nnc(C(=O)Nc3ccc(F)cc3)c2N)cc1,2%
Cc1ccc(S(=O)(=O)N[C@@H](Cc2ccccc2)C(=O)CCl)cc1,20µM*
CCc1n[nH]c(=S)n1/N=C/c1ccc2c(c1)OCO2,-17%
CCc1noc(C)c1C(=O)Nc1nc(-c2ccc(Cl)cc2Cl)c(C)s1,-4%
O=C(Nc1nccs1)c1cn(-c2ccccc2)nc1-c1ccccc1,-24%
CCOC(=O)c1ccc(N2C(=O)CC(N3CCC(C(=O)OCC)CC3)C2=O)cc1 (stereo not given),-3%
Clc1cnccn1,4%
O=Cc1cc2ccccc2nc1SCc1ccc(Cl)cc1,-24%
CCOc1ccc(NC(=O)NCCN2C(C)CCCC2C)cc1 (stereo not given),?

# Screening results deposited in PubChem BioAssay by National Center for Advancing Translational Sciences (NCATS).
